Screens (PubChem BioAssay)
ALR inh: blocks human ALR sulfhydryl oxidase activity; P55789; purified ALR, DTT oxidation, H2O2 HRP-luminol luminescence; inhibition, % (test concentration not listed); 3.8% of 290,000 active; AID 485317;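 active = mean and each replicate at 75% or more; inconclusive = only one of the two met; inactive = neither met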;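 also: stock transfer was 7.5 nL into about 7.5 µL; 0% = neutral wells and 100% = wells with inactivated enzyme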
Target sequence (P55789 whole entry, looked up): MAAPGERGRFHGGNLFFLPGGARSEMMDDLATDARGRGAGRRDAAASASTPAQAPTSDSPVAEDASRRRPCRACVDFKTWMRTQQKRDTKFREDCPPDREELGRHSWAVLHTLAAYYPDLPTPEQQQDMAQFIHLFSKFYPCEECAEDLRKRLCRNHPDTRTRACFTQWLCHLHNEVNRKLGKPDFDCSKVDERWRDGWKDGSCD
LANA-H2B inh: blocks KSHV LANA binding to histone H2A/H2B; inhibition, % (concentration not given with the values); Q9QR71; cell-free LANA-H2A/H2B peptide, fluorescence polarization; AID 2629; 0.6% of 320,000 active; in the data active = inhibition mostly above about 10%, no sharp cut-off; inactive = mostly below about 6.7%;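 also: stock transfer was 7.5 nL into about 10 µL; 0% = median of vehicle wells and 100% = median of positive control wells; one replicate is shown; the record names a cut of 25% in any replicate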
HNF4A DNA FP: change in binding of human HNF4 alpha to DNA; P41235; HNF4a-FITC DNA binding, fluorescence polarization, 1 h; activity change, % at 10 µM; 0.3% of 360,000 active; AID 1224865; in the data active = activity change above about 30%, passing the limit was not always enough;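 also: controls were the assay level and a saturating level of protein; the project sought stronger binding though the title names inhibitors; some compounds called inactive have numbers as strong as hits; positive values seem to mean higher polarization but the record does not say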
Target sequence (P41235 whole entry, looked up): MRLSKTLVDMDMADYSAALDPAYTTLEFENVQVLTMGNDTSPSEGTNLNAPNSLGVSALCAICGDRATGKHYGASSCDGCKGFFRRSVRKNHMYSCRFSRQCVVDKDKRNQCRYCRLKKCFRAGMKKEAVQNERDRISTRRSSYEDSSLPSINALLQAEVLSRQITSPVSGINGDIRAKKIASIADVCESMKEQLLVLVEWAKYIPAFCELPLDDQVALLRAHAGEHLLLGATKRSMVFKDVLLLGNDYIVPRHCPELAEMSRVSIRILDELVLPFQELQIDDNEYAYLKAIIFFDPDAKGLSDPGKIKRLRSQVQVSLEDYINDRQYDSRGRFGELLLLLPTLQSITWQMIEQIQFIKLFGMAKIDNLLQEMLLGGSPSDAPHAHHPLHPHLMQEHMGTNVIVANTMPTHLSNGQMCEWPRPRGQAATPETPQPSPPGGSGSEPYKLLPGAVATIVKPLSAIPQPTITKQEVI
Vif TR-FRET: inhibitors of Vif binding to APOBEC3G peptide, primary screen, biochemical, TR-FRET, GST-Vif 1-94, biotin-A3G peptide, dose response retest (AID 1117319). 0.57% of 260,000 active. inhibition, %; hits with a dose series show IC50 in µM. TR-FRET GST-Vif / biotin-A3G peptide binding; higher % means a stronger effect; test concentration not given here; strong numbers were not always called active;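 active = above the screen mean plus three standard deviations and confirmed in dose response; inconclusive = results disagree or hit not tested in dose response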;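 also: Vif residues 1-94 fused to GST binding biotinylated APOBEC3G peptide 110-148; 0% = full assay without inhibitor and 100% = GST in place of GST-Vif; retest series ran down from 100 µM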
* marks the source's active call; other numbers are inactive results; ? = inconclusive; nt = not tested or not shown. Some of the compounds tested, so the mix of outcomes need not match the whole.

SMILES	ALR inh	LANA-H2B inh	HNF4A DNA FP	Vif TR-FRET
NC(Cc1cc(O)c(O)cc1O)C(=O)O (stereo unspecified)	nt	17	nt	nt
CCC1C=CC=CC[C@H](C)[C@@H](O)[C@](C)(O)C(=O)[C@@H](C)[C@H](O)[C@@H](C)C(=O)[C@H](C)[C@@H](O)[C@H](C)C=CC(=O)OC2[C@@H](C)C(CC1)OC1(CC[C@@H](C)C(C[C@H](C)O)O1)[C@@H]2C (stereo partly specified)	nt	-3.2	nt	nt
Cc1cccc(N2C(=O)NC(=O)/C(=C/c3ccc([N+](=O)[O-])o3)C2=O)c1	-59	2.2	nt	nt
NC1=NC(=O)C(c2ccccc2)O1 (stereo unspecified)	nt	nt	nt	-9%
COc1ccc(CN2C(=O)NC(=O)/C(=C/c3ccc([N+](=O)[O-])o3)C2=O)cc1	nt	nt	nt	4.5µM*
CC(C)[C@@]1(NC(=O)[C@@H]2C=C3c4cccc5[nH]cc(c45)C[C@H]3N(C)C2)O[C@@]2(O)[C@@H]3CCCN3C(=O)[C@H](Cc3ccccc3)N2C1=O	nt	nt	nt	1%
NCCCCC(NC(=O)C1CCCN1C(=O)C1CSSCC(N)C(=O)NC(Cc2ccc(O)cc2)C(=O)NC(Cc2ccccc2)C(=O)NC(CCC(N)=O)C(=O)NC(CC(N)=O)C(=O)N1)C(=O)NCC(N)=O (stereo unspecified)	nt	nt	nt	?
CCN1C(=O)/C(=C\c2ccc([N+](=O)[O-])s2)C(=O)NC1=S	nt	nt	nt	1.5µM*
Cn1cc2c([N+](=O)[O-])cc([N+](=O)[O-])cc2n1	nt	nt	nt	-4%
O=P(O)(O)C#Cc1ccccc1	nt	nt	nt	2%
O=C(Nc1cccc(Cl)c1)c1c(O)c2c(n(Cc3ccccc3)c1=O)CCCC2	nt	nt	nt	-26%
CN(C)P1(=O)N(C)CCN1C	nt	nt	4.7	nt

Single entries from the list.
Vif TR-FRET, CC(C)[C@@]1(NC(=O)[C@@H]2C=C3c4cccc5[nH]cc(c45)C[C@H]3N(C)C2)O[C@@]2(O)[C@@H]3CCCN3C(=O)[C@H](Cc3ccccc3)N2C1=O : 1%
LANA-H2B inh, CCC1C=CC=CC[C@H](C)[C@@H](O)[C@](C)(O)C(=O)[C@@H](C)[C@H](O)[C@@H](C)C(=O)[C@H](C)[C@@H](O)[C@H](C)C=CC(=O)OC2[C@@H](C)C(CC1)OC1(CC[C@@H](C)C(C[C@H](C)O)O1)[C@@H]2C (stereo partly specified) : -3.2
Vif TR-FRET, O=P(O)(O)C#Cc1ccccc1 : 2%
Vif TR-FRET, NC1=NC(=O)C(c2ccccc2)O1 (stereo unspecified) : -9%

New compounds follow.
SMILES	ALR inh	LANA-H2B inh	HNF4A DNA FP	Vif TR-FRET
CCOC(=O)[C@]12Cc3ccccc3[C@H]1N(C)C(=O)c1cc(OC)ccc12	nt	nt	4.0	nt
O=C1NCN(c2ccccc2)C12CCN(C(c1nnnn1C1CCCC1)C1CC1)CC2 (stereo unspecified)	nt	nt	-1.1	nt
CC(C)(C)n1nnnc1C(c1cc2ccccc2o1)N1CCC2(CC1)C(=O)NCN2c1ccccc1 (stereo unspecified)	nt	nt	-5.4	nt
O=C1NCN(c2ccccc2)C12CCN(C(c1ccccc1OC(F)(F)F)c1nnnn1C1CCCCC1)CC2 (stereo unspecified)	nt	nt	0.3	nt
CC(=O)O[C@H]1CC[C@]2(C)C3CC[C@@]4(C)C(C[C@@H](O)[C@@H]4O)C3[C@@H](OC(C)=O)C[C@H]2C1 (stereo partly specified)	nt	nt	1.4	nt
O=C1NCN(c2ccccc2)C12CCN(C(CCc1ccccc1)c1nnnn1-c1ccc3c(c1)OCCO3)CC2 (stereo unspecified)	nt	nt	2.0	nt
CCn1cc(CN2CCCC(C(=O)c3cccc(C(F)(F)F)c3)C2)cn1 (stereo unspecified)	nt	nt	-0.4	nt
CCOC(=O)[C@]12Cc3c(cc(OC)c(OC)c3OC)[C@H]1N(C1CCCCC1)C(=O)c1ccccc12	nt	nt	2.9	nt
C(#CCN1CCCCC1)CN1CCCCC1	nt	nt	3.3	nt
O=C1NCN(c2ccccc2)C12CCN(C(c1ccccc1OC(F)(F)F)c1nnnn1C1CCCC1)CC2 (stereo unspecified)	nt	nt	0.3	nt
COc1ccc(-c2ccc3c(c2)CN(CC(C)C)Cc2cnnn2-3)cc1	nt	nt	-1.5	nt
C[C@@H]1COc2cccc(N3CCN(C)CC3)c2S(=O)(=O)N1	nt	nt	-0.3	nt

3 structures out of the list, ordered by molar mass, falling.
SMILES	ALR inh	LANA-H2B inh	HNF4A DNA FP	Vif TR-FRET
O=C1NCN(c2ccccc2)C12CCN(C(CCc1ccccc1)c1nnnn1-c1ccc3c(c1)OCCO3)CC2 (stereo unspecified)	nt	nt	2.0	nt
O=C1NCN(c2ccccc2)C12CCN(C(c1ccccc1OC(F)(F)F)c1nnnn1C1CCCC1)CC2 (stereo unspecified)	nt	nt	0.3	nt
C(#CCN1CCCCC1)CN1CCCCC1	nt	nt	3.3	nt

(list continues)
SMILES	ALR inh	LANA-H2B inh	HNF4A DNA FP	Vif TR-FRET
COc1ccc(C(c2nnnn2C2CCCC2)N2CCC3(CC2)C(=O)NCN3c2ccccc2)cc1 (stereo unspecified)	nt	nt	-0.8	nt
COc1cc([N+](=O)[O-])c2ncccc2c1[N+](=O)[O-]	nt	nt	1.1	nt
COc1ccc(CN2Cc3cc(-c4cccc(F)c4)ccc3-n3nncc3C2)cc1	nt	nt	4.9	nt
COc1ccc(CN2Cc3cc(N4CCOCC4)ccc3-n3nncc3C2)cc1	nt	nt	0.2	nt
Fc1cccc(-c2ccc3c(c2)CN(C(=S)NCCc2ccccc2)Cc2cnnn2-3)c1	nt	nt	1.3	nt
COc1ccc(-n2nnnc2C(c2cccs2)N2CCC(n3c(=O)[nH]c4ccccc43)CC2)cc1 (stereo unspecified)	nt	nt	1.4	nt
Clc1cccc(N2Cc3cc(-c4ccccc4)ccc3-n3nncc3C2)c1	nt	nt	-3.6	nt
O=c1[nH]c2ccccc2n1C1CCN(Cc2ccc(-c3[nH]c4cc5ncnc5cc4nc3-c3ccccc3)cc2)CC1	nt	nt	-7.1	nt
O=S(=O)(c1cc(Cl)cc(Cl)c1)N1Cc2cc(N3CCOCC3)ccc2-n2nncc2C1	nt	nt	-3.3	nt
CC12Nc3ccccc3C(=O)N1Cc1cnnn1-c1ccccc12 (stereo unspecified)	nt	nt	1.5	nt
COc1cccc(C(c2nnnn2Cc2ccccc2)N2CCC(n3c(=O)[nH]c4ccccc43)CC2)c1OC (stereo unspecified)	nt	nt	-1.5	nt
COc1ccc(-c2ccc3c(c2)CN(C(=O)CCc2ccccc2)Cc2cnnn2-3)cc1	nt	nt	-1.6	nt

Four compounds drawn at random from the list so far:
SMILES	ALR inh	LANA-H2B inh	HNF4A DNA FP	Vif TR-FRET
COc1ccc(-n2nnnc2C(c2cccs2)N2CCC(n3c(=O)[nH]c4ccccc43)CC2)cc1 (stereo unspecified)	nt	nt	1.4	nt
CC12Nc3ccccc3C(=O)N1Cc1cnnn1-c1ccccc12 (stereo unspecified)	nt	nt	1.5	nt
COc1ccc(C(c2nnnn2C2CCCC2)N2CCC3(CC2)C(=O)NCN3c2ccccc2)cc1 (stereo unspecified)	nt	nt	-0.8	nt
COc1ccc(CN2Cc3cc(N4CCOCC4)ccc3-n3nncc3C2)cc1	nt	nt	0.2	nt

Further entries:
SMILES	ALR inh	LANA-H2B inh	HNF4A DNA FP	Vif TR-FRET
O=C1NCN(c2ccccc2)C12CCN(C(c1cc3ccccc3o1)c1nnnn1-c1ccc3c(c1)OCCO3)CC2 (stereo unspecified)	nt	nt	-0.3	nt
CCCCn1nnnc1C(c1ccccc1)N1CCC2(CC1)C(=O)NCN2c1ccccc1 (stereo unspecified)	nt	nt	-0.2	nt
CC(C)(C)n1nnnc1C(c1cccs1)N1CCC2(CC1)C(=O)NCN2c1ccccc1 (stereo unspecified)	nt	nt	-0.1	nt
CCOC(=O)c1cc2cc(OC)ccc2n1C1CCN(Cc2ccccc2)CC1	nt	nt	-2.2	nt
COc1ccc2c(c1)C1OCCNC1CC2 (stereo unspecified)	nt	nt	-0.1	nt
O=C(O)COc1cc(Cl)c(Cl)cc1Cl	nt	nt	2.6	nt
O=C(NCP(=O)(Oc1ccccc1)Oc1ccccc1)OCc1ccccc1	nt	nt	1.1	nt
O=c1[nH]c2ccccc2n1C1CCN(C(c2cc3ccccc3o2)c2nnnn2Cc2ccccc2)CC1 (stereo unspecified)	nt	nt	5.5	nt
COc1ccc(-n2nnnc2C(c2ccccc2)N2CCC(n3c(=O)[nH]c4ccccc43)CC2)cc1 (stereo unspecified)	nt	nt	-2.9	nt
Cc1ccccc1NC(=O)N1Cc2ccccc2-n2nncc2C1	nt	nt	-2.1	nt
CCCCn1nnnc1C(CCc1ccccc1)N1CCC2(CC1)C(=O)NCN2c1ccccc1 (stereo unspecified)	nt	nt	2.1	nt
COc1cccc(C(c2nnnn2-c2ccc3c(c2)OCCO3)N2CCC3(CC2)C(=O)NCN3c2ccccc2)c1OC (stereo unspecified)	nt	nt	-1.2	nt
CCOC(=O)[C@]12Cc3cc(C)ccc3[C@H]1N(C)C(=O)c1cc(OC)ccc12	nt	nt	-5.5	nt
Nc1ccc(CC(N)c2csc(Nc3ncccn3)n2)cc1 (stereo unspecified)	nt	nt	5.1	nt
COc1cc(CNCCc2c[nH]c3ccccc23)cc(OC)c1OC	nt	nt	-1.7	nt
COc1ccc(C(=O)C2CCCN(CCc3ccccc3)C2)cc1OC (stereo unspecified)	nt	nt	3.1	nt
C=CCCC[C@@H]1OC(=O)CNC(=O)C([C@@H](C)CC)NC(=O)[C@@H]2CCCN2C(=O)C([C@@H](C)CC)OC(=O)[C@H](Cc2ccccc2)N(C)C(=O)[C@H](C(C)C)NC(=O)C1(C)C (stereo partly specified)	nt	nt	6.3	nt
CSCCC(c1nnnn1C(C)(C)C)N1CCC(n2c(=O)[nH]c3ccccc32)CC1 (stereo unspecified)	nt	nt	-0.6	nt
C[C@@H]1CN([C@H](C)CO)C(=O)CCCn2nncc2CO[C@@H]1CN(C)C(=O)Oc1ccccc1	nt	nt	0.4	nt
c1ccc(CN2COC3CCCCCC32)cc1 (stereo unspecified)	nt	nt	1.7	nt
COc1ccc(C(c2nnnn2-c2ccc(OC)cc2)N2CCC3(CC2)C(=O)NCN3c2ccccc2)cc1 (stereo unspecified)	nt	nt	0.4	nt
O=C(COC(=O)c1cc(Br)cc(Br)c1O)NC12CC3CC(CC(C3)C1)C2	nt	nt	-0.5	nt
Cc1cccc(C)c1-n1nnnc1C(C1CC1)N1CCC2(CC1)C(=O)NCN2c1ccccc1 (stereo unspecified)	nt	nt	-1.6	nt
CCC(=O)[C@@H](C)[C@@H](O)[C@H](C)C[C@@H](C)C1OC(=O)C[C@@]2(O)CC=C(C)C(O2)C(C)=CCCC[C@H](O[C@H]2C[C@@H](OC(N)=O)[C@H](O)[C@@H](C)O2)C=C[C@H](C)C[C@H]1C (stereo partly specified)	nt	nt	1.2	nt
CC(C)(C)n1nnnc1C(CCc1ccccc1)N1CCC2(CC1)C(=O)NCN2c1ccccc1 (stereo unspecified)	nt	nt	-0.1	nt
Cc1ccc2nc(-c3ccc(CN4CCC(n5c(=O)[nH]c6ccccc65)CC4)cc3)c(-c3ccccc3)nc2c1	nt	nt	2.8	nt
CN(Cc1cccc(-c2ccncc2)c1)C(=O)Oc1ccccc1Cl	nt	nt	0.9	nt
O=C1C2CC(CN3CCCCC23)C2CCCCN12 (stereo unspecified)	nt	nt	1.9	nt
CCOC(=O)[C@]12Cc3cc(OC)ccc3[C@H]1N(Cc1ccccc1)C(=O)c1cc(OC)ccc12	nt	nt	-1.0	nt
CCOC(=O)[C@]12Cc3cc(C)ccc3[C@H]1N(Cc1ccccc1)C(=O)c1cc(F)c(F)cc12	nt	nt	0.7	nt
COC(=O)[C@@H]1N=C(c2ccc(OC)cc2)O[C@]12C(=O)N(Cc1ccccc1)c1ccccc12	nt	nt	3.1	nt
CCCCn1nnnc1C(c1ccc(OC)cc1)N1CCC2(CC1)C(=O)NCN2c1ccccc1 (stereo unspecified)	nt	nt	1.4	nt
O=P1(NCCCl)OCCC(OO)N1CCCl (stereo unspecified)	nt	nt	4.4	nt
O=C1NCN(c2ccccc2)C12CCN(C(c1cccs1)c1nnnn1Cc1ccccc1)CC2 (stereo unspecified)	nt	nt	-3.3	nt
c1ccc2c[n+](CCCCCCCCCC[n+]3ccc4ccccc4c3)ccc2c1	nt	nt	5.3	nt
COc1ccc(-n2nnnc2C(c2ccnc3ccccc23)N2CCC3(CC2)C(=O)NCN3c2ccccc2)cc1 (stereo unspecified)	nt	nt	1.6	nt
COc1ccc(CC2=NCCc3cc(OC)c(OC)cc32)cc1OC	nt	nt	3.9	nt
CCOC(=O)[C@]12Cc3cc(OC)ccc3[C@H]1N(CC(=O)OC)C(=O)c1ccccc12	nt	nt	1.6	nt
